KCNQ2 enhance = enhances the rat KCNQ2 potassium channel; CHO-K1 KCNQ2, FluxOR thallium flux fluorescence; stronger effect = higher value; actives 0.54% (n = 310,000); O88943; B-score at 10 µM; AID 2239;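 active means fluorescence ratio B-score at least 3 SD of library B-scores, with initial fluorescence B-score within 3 SD, cut at about 5.3 in these data; same plate scores as AID 2156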;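 further: B-score of peak minus minimum over baseline fluorescence ratio after K+ and Tl+ stimulus; positive B-score means potentiation of KCNQ2 with more thallium influx and brighter signal; only the inactives scoring about 0 or higher are listed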
Target sequence (O88943 whole entry, looked up): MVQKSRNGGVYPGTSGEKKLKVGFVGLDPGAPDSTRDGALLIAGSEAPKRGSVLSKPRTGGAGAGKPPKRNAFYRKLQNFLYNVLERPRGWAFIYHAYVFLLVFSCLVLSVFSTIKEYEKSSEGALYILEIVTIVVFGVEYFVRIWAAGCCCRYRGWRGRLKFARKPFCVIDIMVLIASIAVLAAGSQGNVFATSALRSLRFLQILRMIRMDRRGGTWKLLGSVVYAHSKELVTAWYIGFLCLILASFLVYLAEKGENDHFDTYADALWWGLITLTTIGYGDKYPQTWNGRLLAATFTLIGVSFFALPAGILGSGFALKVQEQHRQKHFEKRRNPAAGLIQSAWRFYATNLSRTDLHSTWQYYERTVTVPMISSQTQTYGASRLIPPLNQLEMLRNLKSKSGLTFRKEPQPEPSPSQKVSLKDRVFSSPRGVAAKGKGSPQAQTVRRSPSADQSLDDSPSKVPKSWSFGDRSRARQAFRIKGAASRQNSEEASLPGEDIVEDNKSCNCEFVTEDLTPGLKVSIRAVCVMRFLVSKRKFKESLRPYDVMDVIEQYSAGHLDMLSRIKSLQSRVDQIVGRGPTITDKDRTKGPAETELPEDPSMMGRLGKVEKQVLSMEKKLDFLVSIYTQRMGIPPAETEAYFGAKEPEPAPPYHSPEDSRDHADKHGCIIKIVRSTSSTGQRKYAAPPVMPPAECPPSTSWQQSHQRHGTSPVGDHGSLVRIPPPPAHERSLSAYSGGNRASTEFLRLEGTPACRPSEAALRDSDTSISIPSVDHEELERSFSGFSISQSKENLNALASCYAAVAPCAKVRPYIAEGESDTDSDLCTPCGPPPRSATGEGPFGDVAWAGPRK
KCNQ2 enhance baseline = also measured in KCNQ2 enhance; calls as there; B-score; compound at 10 µM; measured here: initial fluorescence intensity artifact check;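 brightness before thallium and not channel activity; 0 = typical well and far values either way flag optical interference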
Starred values were filed as active, the others as inactive; · = no result given. An excerpt (hit frequency here may not be typical).

Start of the listing, in advance:
SMILES	KCNQ2 enhance	KCNQ2 enhance baseline
CN1CCN(NC(=O)Nc2ccc([N+](=O)[O-])cc2)CC1	0.79	-0.56
Cc1ccc(OCC(=O)N(Cc2cccs2)C2CCS(=O)(=O)C2)cc1 (stereo unspecified)	0.01	0.51

All compounds of this part (from the top)
SMILES	KCNQ2 enhance	KCNQ2 enhance baseline
CN1CCN(NC(=O)Nc2ccc([N+](=O)[O-])cc2)CC1	0.79	-0.56
Cc1ccc(OCC(=O)N(Cc2cccs2)C2CCS(=O)(=O)C2)cc1 (stereo unspecified)	0.01	0.51
CC(C)c1ccc[n+](-c2nc([O-])sc2C=O)c1	0.11	0.71
O=C(Nc1ccc(S(=O)(=O)NCc2ccco2)cc1)C1CCCCC1	0.17	-0.61
O=[N+]([O-])c1ccc(N(CC2CO2)S(=O)(=O)c2ccccc2)cc1 (stereo unspecified)	0.79	0.82
Oc1ccc(-c2nc(-c3ccc(O)c(O)c3)cs2)cc1	-5.56	·
COCCCNCCOCCOc1ccc(C)cc1Br	0.84	-1.2
COc1cccc(NS(=O)(=O)c2cc(C)sc2C)c1	1.06	1.69
COc1cc(/C=C/C(=O)NCc2ccccn2)cc(OC)c1OC	0.13	0.22
CC(=O)N(C(C)=O)c1ccc2nc(C)[nH]c(=O)c2c1	1.38	1.58
CCC(=O)N(CC)c1nc(-c2cc(OC)ccc2OC)cs1	0.09	-1.99
CCN(C(=O)CCNC(=O)Cn1cnc2ccccc2c1=O)c1cccc(Cl)c1	1.3	0.13
Cc1sc(N/N=C/c2cccs2)nc1-c1ccccc1	1.24	1.53
O=C(N=Nc1c(O)n(C2OC(=O)c3ccccc32)c2ccccc12)c1ccc(O)cc1 (stereo unspecified)	0.66	-0.26
Cc1cc(C(=O)NC(C)C)on1	0.05	0.3
COc1ccc(NC(=O)CN(C)C(=O)c2c(C)nn(Cc3ccccc3)c2C)cc1	1.24	-1.15
CCc1cc2c(SCC(=O)NC(=O)c3cccn3C)ncnc2s1	0.54	0.86
O=C(COC(=O)CNC(=O)c1ccc(Br)o1)Nc1ccc2c(c1)OCCO2	0.2	1.24
O=C(Nc1cccc(NC(=O)c2ccccc2)n1)c1ccccc1	1.59	0.17
COc1cccc(CNC(=O)Cc2ccc(-n3c(=O)[nH]c4ccccc4c3=O)cc2)c1	1.41	-1.43
CCOc1ccc(CNC(=O)C(CC)n2nc(C)n3c(cc4occc43)c2=O)cc1OC (stereo unspecified)	0.01	0.18
Cc1ccc(CNC(=O)Nc2ccc(C)cc2)cc1	2.51	1.37
Cc1ccc(CNC(=O)CCSCCC(=O)NCc2ccc(C)cc2)cc1	0.42	0.8
COC(=O)c1cccc(NC(=S)NCc2ccc(F)cc2)c1	1.46	-0.5
COc1ccccc1OCCn1c(=S)[nH]c2ccccc21	0.16	-0.28
CCN1C(=O)[C@H]2[C@@H](c3ccc(C)cc3)N3C(=O)N(c4ccccc4)C(=O)[C@@]3(C)[C@H]2C1=O	0.51	2.73
Cc1cnc(C)c(N2CCC(C(=O)NCc3ccco3)CC2)n1	0.85	-0.02
COc1ccccc1NC(=S)NC(NC(=O)C(C)C)C(Cl)(Cl)Cl (stereo unspecified)	2.05	-0.13
CC(C)(C)NC(=S)NCc1ccncc1	0.47	-2.57
CC(=O)Nc1cccc(C(=O)OCc2ccccc2)c1	1.15	-1.38
CCOC(=O)CCCNC(=O)COC(=O)c1cccc(C)c1O	0.16	-1.48
Cc1nc2c(n1O)CCC/C2=N\O	0.12	0.09
CCc1nnc(NC(=O)CSC(=S)N2CCOCC2)s1	0.24	0.41
O=C(CCN1C(=O)C2C3CCC(C3)C2C1=O)Nc1ccc(Br)cc1 (stereo unspecified)	0.79	0.02
CC(CCC(=O)Nc1nncs1)C(=O)O (stereo unspecified)	1.35	-0.11
CN(C)c1nc(-c2ccccc2)nnc1C(F)(F)F	1.32	0.75
Nc1ccc(C(=O)OCC(=O)N2CCN(C(=O)c3ccco3)CC2)cc1[N+](=O)[O-]	1.95	0.05
S=C(NCc1ccc(Cl)cc1)NC1CCCCC1	6.23*	0.06*
Cn1ccsc1=NC(=O)c1ccc(OC(F)(F)F)cc1	0.02	0.14
COc1ccc(C(=O)NNC(=S)NC(=O)c2ccc(Cl)cc2)cc1	0.9	0.02
CCc1ccc(NC(=O)NCCN2CCN(c3ccc(OC)cc3)CC2)cc1	0.53	0.03
Cc1ccc(-c2nnn(CC(=O)Nc3cccc4c3CCCC4)n2)o1	0.21	-1.11
CCOC(=O)N1CCC(NS(=O)(=O)c2ccc(C#N)cc2)CC1	0.35	-0.74
CCCC(=O)NCCCc1nc2ccccc2n1CC	0.02	0.6
Cc1nn(CC#N)c(=O)n1-c1ccc(C(C)C)cc1	1.42	1.6
CC(=O)Nc1ccc(NC(=O)COc2cc(O)c3c(c2)OC(C)(C)CC3=O)cc1	2.63	-0.06
CCOC(=O)C1(Cc2cccc(F)c2)CCN(Cc2cn(CC)nc2C)CC1	1.01	0.44
CC(C)CSc1nc2c(c(=O)[nH]c(=O)n2C)n1CC(O)COc1cccc2ccccc12 (stereo unspecified)	0.45	-0.91
CC(=O)Nc1cccc(S(C)(=O)=O)c1	0.25	-0.76
CCOC(=O)c1c(NC(=O)c2nn(CC)cc2Br)sc2c1CCCCC2	4.87	-0.98
CCOC(=O)N1CCN(C(=O)c2cc(COc3ccc(Cl)cc3OC)on2)CC1	0.72	-1.42
COc1ccc(/C(O)=C2/C(=O)C(=O)N(CCN(C)C)C2c2ccccn2)cc1OC (stereo unspecified)	0.32	0.59
COCCN(CC(=O)NCc1ccc(OC)cc1)C(=O)CCC(=O)Nc1nccs1	1.08	-0.25
COc1ccc(NC(=O)CCS(=O)(=O)c2ccc3c(c2)CCN3C(C)=O)cc1	1.81	1.69
NC(=O)c1cc(Br)cc(C2CCCCC2)c1O	0.43	1.39
O=C(NC1(C(F)(F)F)NC(=O)N(Cc2ccco2)C1=O)c1cccnc1 (stereo unspecified)	0.14	0.11
O=C(CN1CCCCC1)Nc1cccc([N+](=O)[O-])c1	1.58	-0.32
Cc1ccc(NC(=O)CN(C)C(=O)COC(=O)CNS(=O)(=O)c2ccc(Br)cc2Cl)cc1	3.74	-0.85
O=C(Cc1ccc(F)cc1)OCN1C(=O)c2ccccc2C1=O	2.27	-0.78
C/C(Cc1ccccc1)=N\NC(=O)CNC(=O)c1ccccc1	0.42	-0.83

Entries of single compounds from above. Order of values: KCNQ2 enhance	KCNQ2 enhance baseline
O=[N+]([O-])c1ccc(N(CC2CO2)S(=O)(=O)c2ccccc2)cc1 (stereo unspecified) is listed as 0.79	0.82
C/C(Cc1ccccc1)=N\NC(=O)CNC(=O)c1ccccc1 is listed as 0.42	-0.83

Next section.
SMILES	KCNQ2 enhance	KCNQ2 enhance baseline
CN1CCN(CC(=O)Nc2ccc(OCc3ccccc3)cc2)CC1	0.75	-3.51
Cc1nnc(SCCn2c(N3CCCC(C)C3)nc3c2c(=O)n(C)c(=O)n3C)s1 (stereo unspecified)	0.29	2.46
CCN(CC)Cc1cc2ccccc2c2c1COC2	0.21	1.29
COc1cccc(NC(=O)N2CCCC(C(=O)NCc3ccc(F)cc3)C2)c1 (stereo unspecified)	0.23	-0.11
C=CCn1c(N)c(C(=O)NCC2CCCO2)sc1=S (stereo unspecified)	0.03	-1.05
COc1ccc(NC(=O)CSc2sc3c(O)cc(=O)[nH]c3c2C#N)c(OC)c1	0.43	0.52
CCOc1ccc(C(=O)/C=C/Nc2ccc(S(=O)(=O)N=C(N)N)cc2)cc1	0.01	-1.06
Cc1[nH]c(=O)[nH]c(=O)c1S(=O)(=O)N1CCCC(C(=O)NCCc2ccc(Cl)cc2)C1 (stereo unspecified)	0.66	-0.72
O=C(Nc1ccccc1)N1CCN(C(=O)Nc2ccccc2)CC1	0.9	-0.11
CN(C)c1ccc(C=NCCC2(c3ccccc3)CCOC(C)(C)C2)cc1 (stereo unspecified)	0.26	0.06
COc1ccc(C(=NNc2ccccc2C(=O)O)c2ccc(OC)cc2)cc1	1.69	-1.64
O=C(Nc1ccc(F)c(F)c1)c1ccc2c(c1)OCO2	0.04	2.73
COc1cc(C2C(N3C(=O)c4ccccc4C3=O)C(=O)N2c2ccc(C)c(C)c2)cc(OC)c1OC (stereo unspecified)	1.49	0.41
COc1cc(C(=O)NC(C)c2cnn(-c3ccccc3C)c2C)cc(OC)c1OC (stereo unspecified)	0.58	-1.38
O=C1CC(c2ccc(Cl)cc2)CC(O)=C1C=NCc1ccc(Cl)c(Cl)c1 (stereo unspecified)	1.23	0.12
COc1ccc(NC(=O)c2cc(S(=O)(=O)N3CCCC3)oc2C)cc1	0.56	1.69
CC(=O)Oc1ccc2c3c(c(=O)oc2c1C)CCCC3	1.09	-2.98
Cc1ccsc1C1C(C#N)=C(N)OC2=C1C(=O)CCC2 (stereo unspecified)	2.11	2.18
COc1ccc(CNC(=O)CN(CC2CCCO2)C(=O)CNS(=O)(=O)c2ccccc2)cc1 (stereo unspecified)	0.36	-0.7
COc1ccccc1CC(=O)N1CCN(c2ccccn2)CC1	1.52	0.03
C=CCOc1ccccc1CN1CCN(CCc2ccccc2)C(CCO)C1 (stereo unspecified)	0.72	1.32
Cc1cc(C(=O)Nc2ccncc2)c2ccccc2n1	0.04	-0.11
C=CCOC(=O)c1c(C)nc2cc3c(cc2c1C)OCO3	1.7	-0.07
O=C(c1ccc(O)cc1)c1ccc(C(=O)c2ccc(O)cc2)cc1	0.42	0.78
CCn1c(=S)[nH]c2scc(-c3cccs3)c2c1=O	18.3*	0.9*
CCC(=O)Nc1ccc(C(=O)NCCCn2ccnc2)cc1	0.18	0.33
Cc1sc(N)nc1-c1ccc2c(c1)OCCO2	0.06	-1.22
COc1ccc(C)cc1NC(=O)CSc1nnc2ccc(-c3ccccn3)nn12	0.99	-0.54
CCOC(=O)Cn1cnc2c(nnn2-c2cccc(OC)c2)c1=O	0.43	1.84
CC(C)c1cc(-c2cc(C(=O)NCc3ccccc3)on2)nc(NCC2CC2)n1	0.68	0.49
CC(=O)Nc1ccc(NC(=O)CSc2nc(N)c(NC(=O)c3ccco3)c(=O)[nH]2)cc1	0.05	-0.98
COc1ccc(CCNC(=O)C(=O)NCc2cccs2)cc1OC	0.7	0.32
O=C(O)Cn1nnnc1SCC(=O)Nc1ccccc1F	1.94	0.23
CC(=O)c1cccc(NC(=O)C(C)OC(=O)c2cccc(-n3cnnn3)c2)c1 (stereo unspecified)	0.66	-0.56
COc1cccc(CN2CCNC(=O)C2CC(=O)O)c1OC (stereo unspecified)	0.02	-0.65
CCOc1ccc(OCCC(=O)OCC(=O)Nc2cc(C)nn2-c2ccccc2)cc1	2.39	-1.39
COc1ccc(C2C(C(=O)Nc3cccc(C)n3)CCC(=O)N2c2ccc(OC)cc2)cc1 (stereo unspecified)	0.15	3.01
CN1CCN(Cc2ccc(Sc3ccc(Cl)cc3)c([N+](=O)[O-])c2)CC1	4	-0.05
CCOc1ncccc1C(=O)OCC(=O)N1CCc2ccccc21	0.41	1.69
O=C(CSc1nnc(SCc2cccc3ccccc23)s1)Nc1ccc(C(=O)O)cc1	1.58	0.01

Nothing new here: five of the compounds above.
SMILES	KCNQ2 enhance	KCNQ2 enhance baseline
CCOc1ccc(OCCC(=O)OCC(=O)Nc2cc(C)nn2-c2ccccc2)cc1	2.39	-1.39
COc1ccc(C2C(C(=O)Nc3cccc(C)n3)CCC(=O)N2c2ccc(OC)cc2)cc1 (stereo unspecified)	0.15	3.01
CN1CCN(Cc2ccc(Sc3ccc(Cl)cc3)c([N+](=O)[O-])c2)CC1	4	-0.05
CCOc1ncccc1C(=O)OCC(=O)N1CCc2ccccc21	0.41	1.69
O=C(CSc1nnc(SCc2cccc3ccccc23)s1)Nc1ccc(C(=O)O)cc1	1.58	0.01

Further entries.
SMILES	KCNQ2 enhance	KCNQ2 enhance baseline
COc1ccc(Br)cc1C(=O)Nc1ccc(C(=O)O)cc1	0.17	-1.9
O=C(O)c1ccc(S(=O)(=O)N2CCC(Cc3ccccc3)CC2)cc1	0.52	-0.59
C/C(CC(=O)Nc1ccc(F)cc1)=N\NC(=O)COc1ccccc1	0.24	0.76
CCC1(c2ccccc2)NC(=O)N(CC(=O)Nc2ccccc2N2CCCCC2)C1=O (stereo unspecified)	0.24	-1.95
O=C(CN(Cc1ccco1)C(=O)CCC(=O)Nc1ccccn1)NCCc1ccccc1	1.71	-0.97
NNc1cc(C(=O)O)ccc1Cl	0.79	-2.57
Cc1ccc(-c2nn(C)c(=O)c3ccccc23)cc1S(=O)(=O)N1CCOCC1	0.87	-0.62
CC(Oc1ccccc1)C(=O)N1CCN(c2ccc(N3CCCCCC3)nn2)CC1 (stereo unspecified)	0.04	0.01
O=C1/C(=C/c2cccc(O)c2)SC(=S)N1CC1CCCO1 (stereo unspecified)	0.25	-0.16
c1csc(CSc2nc3ccccc3s2)c1	0.18	0.72
CN(CC(=O)Nc1cccc(F)c1)C(=O)CCCc1nc2ccccc2c(=O)[nH]1	2.07	-0.19
Cc1cc(C(F)F)nn1CC(=O)NC1CCCC1	1.36	-0.07
CN(c1ccccc1)S(=O)(=O)c1cccc(NC(=O)CSc2n[nH]c(N)n2)c1	1.75	0.08
COc1cccc(C=O)c1OCCN1C(=O)c2ccccc2C1=O	0.43	-2.22
Clc1ccc(SCCCN2CCCCC2)cc1	1.79	-0.03
Cc1ccc(-n2cccn2)c(CN2CCCC(CNC(=O)c3ccc(F)cc3)C2)c1 (stereo unspecified)	0.33	0.14
Cc1ccc(S(=O)(=O)NNC(=O)CCC(=O)Nc2ccc(C)c(C)c2)cc1	0.3	-0.06

Screens (PubChem BioAssay)
